Calb biofilm kill: mixtures killing C. albicans biofilm. inhibition, % at 7.6 µM. C. albicans biofilm persisters + clotrimazole, fluorescence viability; primary screen in compound mixtures of four per well. 120,000 tested, 0.02% active. AID 1242;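 active = inhibition above 30.3% in the primary screen of four-compound pools, then above 30% when the compound was retested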;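 note: compounds exposed to preformed 24 h biofilms for 48 h; the number belongs to the whole pool; some results filed as inactive read as strong as hits; inactives centre near 12; 0% = biofilm with clotrimazole alone and 100% = kill control; retested singly at about 60 µM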
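Incubation: 24 h biofilm formation, then 48 h compound exposure, 37 °C | Material: C. albicans biofilms | Buffer or medium: RPMI/MOPS medium, pH 7.0 | Measured by: 2-h Alamar Blue fluorescence, 535/590 nm excitation/emission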
* hit, by the source's call.

molecule	Calb biofilm kill
O=C(CN1C2=NCCCN2c2ccccc21)c1ccc([N+](=O)[O-])cc1	17
CCCCCCC1CC(C)(C(=O)CNc2nncs2)OC1=O (stereo unspecified)	20
OC(COc1ccccc1)Cn1c2ccccc2c2ccccc21 (stereo unspecified)	6
CCc1c(C)nc2c(OC)cccc2c1SCCC(=O)O	12
C/C(CCc1ccccc1)=N/NC(=O)C(=O)NC(C)c1ccccc1 (stereo unspecified)	8
O=C(Nc1ccc2nsnc2c1)C1CC1	39
CC(C)(C)c1ccc(-n2nc(C#N)c(Cl)cc2=O)cc1	5
COc1ccc(/C=C2\SC(=N)N(c3ccc(F)cc3)C2=O)cc1	9
CCC(=O)Nc1ccc(NC(=O)/C=C/c2ccc(Cl)cc2)cc1	18
CN(CC(=O)Nc1ccccc1Sc1ccccc1)C1CCCCC1	15

Additional compounds.
molecule	Calb biofilm kill
CCS(=O)(=O)C(C)(CCl)C(=O)Nc1ccc(C(=O)OC)cc1 (stereo unspecified)	27
CCOC(=O)c1csc(-c2ccc(OC)c(OC)c2)n1	0
COc1ccccc1NC(=O)CC(NC1CCCCC1)C(=O)O (stereo unspecified)	5
CC(=C/C(=O)O)/C=C/c1ccc([N+](=O)[O-])cc1	13
CCSc1nnc(NC(NC(C)=O)(C(F)(F)F)C(F)(F)F)s1	8
Cc1ccccc1OCCC(=O)OCC(=O)Nc1cc(S(=O)(=O)N2CCOCC2)ccc1Cl	3
Cc1ccccc1Nc1cc(C(=O)NCC2CCCO2)c2ccccc2n1 (stereo unspecified)	16
CC(=O)N/C(=C/c1ccc(OS(=O)(=O)c2ccc(C)cc2)cc1)C(=O)NCCCO	11
O=C1Cc2ccccc2Sc2cc(OCCCN3CCCCC3)ccc21	15
O=C(CSc1nnc(CNc2ccc(F)cc2)n1CC1CCCO1)Nc1ccccc1 (stereo unspecified)	11

(listing goes on)
molecule	Calb biofilm kill
COc1ccccc1/C=C/C=C1N=C(/C=C/c2ccc(Cl)cc2)OC/1=O	13
Cc1ccc(C)c(C(C)NC(=O)c2ccc(Br)o2)c1 (stereo unspecified)	6
Cc1cc(Br)ccc1NC(=O)c1cnc(N2CCN(c3ccccn3)CC2)c2ccccc12	12
Cc1cccc(NC(=O)c2cc(=O)n(Cc3ccccc3)c(=O)[nH]2)c1	11
COc1ccccc1/C=C/C(=O)Nc1cccc(S(=O)(=O)NC2=NCCCCC2)c1	17
O=C(c1cc(=O)c2ccccc2o1)N1CCN(c2ccccc2)CC1	17
CN(C)c1ccc2c(c1)Sc1cc(N(C)C)ccc1N2C(=O)c1ccccc1	24
CC(=O)c1cccc(NC(=O)COC(=O)[C@@H](NC(=O)OCc2ccccc2)C(C)C)c1	22
COc1ccccc1C(=O)Nc1ccc2c(c1)nc(CCNC(=O)c1ccccc1)n2C	37
Cc1ccc(C(=O)CSc2nc3c([nH]2)c(=O)n(C)c(=O)n3C)cc1	5

Further results
molecule	Calb biofilm kill
Cc1cc(Cc2ccc(N)c(C)c2)ccc1N	9
N#CC1(C#N)C(c2ccccc2)OC23CCCCC2C1(C#N)C(=N)O3 (stereo unspecified)	16
Cc1cccc2sc(NC(=O)[C@H](C)N3C(=O)C4CC=CCC4C3=O)nc12 (stereo partly specified)	6
CCn1c(=O)c([N+](=O)[O-])c(N2CCSCC2)c2ccccc21	-1
CCN1CCN(C(=O)C(N)Cc2ccccc2)CC1 (stereo unspecified)	-5
CCS(=O)(=O)N1Cc2ccccc2CC1C(=O)OCC(=O)N(C(C)C)C(C)C (stereo unspecified)	15
Cc1nc(N2CCCCC2)c2c(-c3cccs3)csc2n1	17
Cc1ccc2c(c1)C(=O)C(=O)N2CCCOc1ccccc1C	7
CN(C)C(C(=O)Nc1cc(Cl)cc(Cl)c1)c1ccccc1 (stereo unspecified)	6
CCc1cccc(CC)c1NC(=O)COn1nnc2ccc(C(F)(F)F)cc21	6

Other compounds
molecule	Calb biofilm kill
Nc1cc(C(F)(F)F)ccc1-n1cccc1	14
CCOC(=O)c1sc(NC(=O)CSc2nc(O)c(Cc3ccccc3)c(=O)[nH]2)nc1C	16
Cc1ccc(CNc2nc(Cl)c(C#N)s2)cc1	-1
Cc1cccc(-n2nc3c([n+]2[O-])CCc2nonc2-3)c1C	4
CN(C)C(=O)c1c([N+](=O)[O-])ncn1C	6
O=C(Cn1cnc2c(cnn2-c2ccc(F)cc2)c1=O)N1CCCc2ccccc21	12
COc1ccc(CN(CC(=O)NC2CCCC2)C(=O)c2ccc(-c3ccccc3)[nH]2)cc1	9
CCOc1c(N2CCOCC2)c(=O)c1=O	12
COc1ccc(Br)cc1S(=O)(=O)NNC(=O)c1c(C)nc2ccccn12	49
CC1=CC2=NC(=O)/C(=C\c3cc(C)n(-c4ccc(F)cc4)c3C)C(=N)N2O1	11

(next part)
molecule	Calb biofilm kill
NN1C(=O)/C(=C\c2ccco2)SC1=S	12
COc1ccccc1NC(=O)Cc1noc(CSc2nnc(C(F)(F)F)n2C)n1	10
Cc1cccnc1NC(=O)c1csnn1	18
Cc1ccc(NC(=O)CSC(C)C(=O)NCCc2ccccn2)cc1 (stereo unspecified)	14
CC(C)(C)c1nc(SCC(=O)N2CCCC2)c2ccccc2n1	15
O=c1[nH]c(CSc2nc(-c3ccc(F)cc3)cs2)nc2ccccc12	6
COc1ccc(C(=O)CSc2nnc(-c3ccco3)o2)cc1	15
Cc1cc(C)c(S(=O)(=O)Nc2ccc(N3CCOCC3)cc2)c(C)c1	20
CN1C(=O)CS/C1=N\NC(=O)COc1cccc2cccnc12	1
CCOC(=O)c1ccccc1-n1nnnc1C	13

Other structures:
molecule	Calb biofilm kill
O=C(NNS(=O)(=O)c1ccc(C(=O)NC2CCCC2)cc1)c1ccncc1	9
O=c1[nH]n2c(-c3ccccc3)nc(O)c2c2ccccc12	9
Nc1nc(NCc2ccco2)nc(N2CCOCC2)c1[N+](=O)[O-]	8
COCCNC(=O)/C(C#N)=C/c1ccc(O)cc1	12
CCOc1ccccc1CN1CCN(Cc2cccc3c2OCO3)CC1CCO (stereo unspecified)	20
Cc1ccc(CN(Cc2ccco2)C(=S)NCC(=O)NCc2cccnc2)cc1	16
COC(=O)c1ccc(NC(=S)Nc2cccc(C)n2)cc1	14
CCOc1ccc(C(=O)CSCC(=O)O)cc1	12
O=C(NCCc1c[nH]c2ccccc12)C(=O)NCC1OCCN1S(=O)(=O)c1ccccc1 (stereo unspecified)	-17
COc1ccc(C2CC3(CC(C)(C)NC(=S)N3)Oc3cc(O)cc(C)c32)cc1OC (stereo unspecified)	7

(further entries)
molecule	Calb biofilm kill
O=C(Nc1ccn(Cc2ccccc2)n1)c1n[nH]c([N+](=O)[O-])c1Cl	11
CC1(C)CC(NC(=S)NCc2ccc3c(c2)OCO3)CC(C)(C)N1	13
CC(=O)Nc1ccc(/C(C)=N/NC(=O)c2ccccc2Cl)cc1	11
O=C(/C=C/c1cn(-c2ccccc2)nc1-c1ccc2c(c1)OCCO2)NCCO	18
Cc1cc(N2CCN(C(=O)c3ccco3)CC2)n2ncnc2n1	3
COc1ccc(-c2c(N)n[nH]c2C)cc1OC	-5
Cc1ccccc1OCC(=O)Nc1ccc(S(=O)(=O)Nc2ccccn2)cc1	1
OCCNc1cnc2ccccc2n1	1
O=c1cnnc(N/N=C/c2c[nH]c3ccccc23)[nH]1	27
COc1ccc(OC)c(C2=NOC(C(=O)Nc3c(C)n(C)n(-c4ccccc4)c3=O)C2)c1 (stereo unspecified)	6

Going on with the list.
molecule	Calb biofilm kill
Cc1[nH]c2ccccc2c1SCC(=O)N1CCC(C)CC1	14
C/C(CCc1ccco1)=N\NC(=O)CNc1c(Br)cc(Br)cc1Br	11
CCOC(=O)N1CCc2c(sc3[nH]c(=S)[nH]c(=S)c23)C1	18
O=C(c1cc(COc2c(F)cccc2F)on1)N1CCC(c2ccncc2)CC1	4
C=CCN1C(=O)/C(=c2\sc3nc(=O)c(Cc4ccc(OC)c(OC)c4)nn3c2=O)c2ccccc21	10
CCc1ccc(CNCc2ccc(OCC(O)CN(C)Cc3ccccc3)cc2)nc1 (stereo unspecified)	16
Cc1ccc(F)cc1NC(=O)CN1CCN(c2ccccn2)CC1	9
O=C1CCN(CCc2ccccc2)CCN1CCSc1ccc(Br)cc1	17
O=C(Nc1ccccc1)Nc1nc(-c2ccc(F)cc2)cs1	15
Cc1ccc(NC(=S)N(CCN(C)C)Cc2cccs2)cc1C	17

Continued.
molecule	Calb biofilm kill
COc1ccc(C(=O)C2CCCN(C(=O)COc3ccc(C(C)=O)cc3)C2)cc1F (stereo unspecified)	6
CC1CCN(c2c(NCC3CCC(C(=O)NCCC4=CCCCC4)CC3)c(=O)c2=O)CC1 (stereo unspecified)	4
CCOc1ccc2nc(COC(=O)c3cccs3)c(C(=O)c3ccccc3)[n+]([O-])c2c1	7
O=C(N/N=C/c1cc(Br)ccc1O)c1ccncc1	0
CC1(C)SC(=S)N(NC(=O)Nc2cccc3ccccc23)C1N(O)C(=O)Nc1ccccc1 (stereo unspecified)	20
O=C(Nc1cccc(S(=O)(=O)C(F)F)c1)c1ccc(S(=O)(=O)N2CCCCC2)cc1	15
CC/S(C)=N/S(=O)(=O)c1ccc(C)cc1 (stereo unspecified)	10
O=C(/C=C/c1cccc(Br)c1)N1CCN(c2cccc(C(F)(F)F)c2)CC1	4
CCC(CC)NC(=O)Nc1ccc(F)c(Cl)c1	12
Cc1ccc(CNC(=O)C2CCC(CNc3c(N4CCC(C)CC4)c(=O)c3=O)CC2)cc1 (stereo unspecified)	24

Of the compounds above, 4 contain a cyano group:
molecule	Calb biofilm kill
CC(C)(C)c1ccc(-n2nc(C#N)c(Cl)cc2=O)cc1	5
N#CC1(C#N)C(c2ccccc2)OC23CCCCC2C1(C#N)C(=N)O3 (stereo unspecified)	16
Cc1ccc(CNc2nc(Cl)c(C#N)s2)cc1	-1
COCCNC(=O)/C(C#N)=C/c1ccc(O)cc1	12

Next section
molecule	Calb biofilm kill
CCCC(=O)Nc1nc2c(C)c(Cl)ccc2s1	12
CCn1cc(-c2cc(C(=O)O)c3ccccc3n2)cn1	13
CCN1CC(CN(C)Cc2nc(-c3ccc(C(F)(F)F)cc3)oc2C)CC1=O (stereo unspecified)	3
Cc1noc(C)c1COc1cccc(C(=O)Nc2cccnc2)c1	3
Cc1[nH]c2ccccc2c1C(=O)NS(=O)(=O)Nc1ccc(Cl)cc1	6
COc1ccc(N2CCN(c3n[nH]c(N)n3)CC2)cc1	13
CC1=NN(c2ccccc2)C(=O)/C1=C/C=C/c1ccc(N(C)C)cc1	6
COc1c(C)cc(C(=O)C2CCCN(C(=O)CCCn3cncn3)C2)cc1C (stereo unspecified)	1
CC(C)CCNC(=O)CNC(=S)N(Cc1ccccc1)Cc1cccnc1	14
N#C/C(=C(/O)c1ccco1)c1nc2ccccc2s1	22

Next part.
molecule	Calb biofilm kill
O=C(Nc1ccc2nc3n(c(=O)c2c1)CCCC3)c1ccccc1[N+](=O)[O-]	11
Cc1nc([N+](=O)[O-])c(C(=O)OCc2ccccc2)n1C	20
CNC(=O)c1nc(C)n(-c2ccc([N+](=O)[O-])cc2)n1	11
CCO[C@@H]1OC(C(=O)NCc2ccccc2)=C[C@H](c2ccc(C(F)(F)F)cc2)[C@H]1CCCO	4
O=C(CSc1ccccn1)Nc1ccccc1F	15
CC(C)(C)c1cc[n+](C2=C([O-])c3ccccc3C(=O)/C2=N\S(=O)(=O)c2ccccc2)cc1	7
Cc1ccccc1OCc1nc2ccccc2c(=O)n1/N=C/c1ccco1	15
O=C(N/N=C/c1ccccc1[N+](=O)[O-])c1ccc(COc2ccccc2-c2ccccc2)cc1	21
COc1cccc(NC(=O)C(=S)NC2CCCCC2)c1	4
Nn1c(SCC(=O)NC(=O)Nc2ccc3c(c2)OCCO3)nnc1C1CC1	7

4 entries from above, reformatted.
O=C(Nc1ccc2nc3n(c(=O)c2c1)CCCC3)c1ccccc1[N+](=O)[O-]
  Calb biofilm kill: 11

Cc1nc([N+](=O)[O-])c(C(=O)OCc2ccccc2)n1C
  Calb biofilm kill: 20

CNC(=O)c1nc(C)n(-c2ccc([N+](=O)[O-])cc2)n1
  Calb biofilm kill: 11

CCO[C@@H]1OC(C(=O)NCc2ccccc2)=C[C@H](c2ccc(C(F)(F)F)cc2)[C@H]1CCCO
  Calb biofilm kill: 4

More structures follow:
molecule	Calb biofilm kill
O=C(O)c1cccc(NS(=O)(=O)c2ccc(C3CCCCC3)cc2)c1	4
O=C1/C(=C/c2c[nH]c3ccccc23)CCC/C1=C\c1c[nH]c2ccccc12	7
COc1cccc(Oc2nc(-c3ccncc3)nc3ccccc23)c1	20
CN(Cc1ccccc1)C(=O)CN(Cc1ccccc1)S(C)(=O)=O	6
O=C(c1ccc(S(=O)(=O)c2ccc(Cl)cc2)cc1)N1CCOCC1	5
Cc1ccc(S(=O)(=O)c2c(CO)c(-c3ccccc3)nn2C)cc1	9
COc1ccc(CN2C3CCCC2CC(NC(=O)Nc2cccc(C)c2)C3)cc1 (stereo unspecified)	15
N#C/C(=C/c1ccc(F)cc1)S(=O)(=O)c1ccccc1	5
CCC1SC(C)C/C(=N/NC(N)=O)C1C (stereo unspecified)	19
CCCn1c(CCC(=O)O)nc2cc(S(=O)(=O)N3CCCC3)ccc21	18

Next compounds
molecule	Calb biofilm kill
CCCCN(C)C(=S)Nc1ccc2nc(N3CCN(CC)CC3)cc(C)c2c1	6
COc1cc(NC(=O)Nc2cccc(Cl)c2)c(C(=O)O)cc1OC	19
CCN(C(=O)COC(=O)c1ccc(Br)o1)C1CCCCC1	15
COc1ccccc1CNC(=O)COC(=O)CCC(=O)c1cccs1	16
C[C@H](N)C(=O)OCc1ccc([N+](=O)[O-])cc1	16

Not all compounds are listed; count on the stated rates, not on these rows.
